SARS PLpro yeast: qHTS of Yeast-based Assay for SARS-CoV PLP; S. cerevisiae expressing SARS-CoV PLpro, growth rescue; control for the full effect not named in the record; Potency, µM (top dose mostly 32.9 µM), for inactives: top-dose activity, positive = growth rescue; 0.19% of 330,000 active; AID 485353, 2010; note: 0% is about no effect; nearly all actives have a fitted effect of over 55% in size; growth read by luminescence after 48 h
MARV entry inh: qHTS for inhibitors of binding or entry into cells for Marburg Virus; Marburg virus pseudotyped entry inhibition, cell reporter; control for the full effect not named in the record; about a third of the inactives were read at about 46 µM; Potency, µM (highest dose often 37.8 µM), for the others: at the highest dose activity change, negative = inhibition, most hits filed as inhibitors; 1.8% of 300,000 active; active = well fitted inhibition curve with a large enough effect; inconclusive = small, poorly fitted or top-dose-only effect, or effect the other way; inactive = flat fitted curve, though single readings scatter; tested in HEK293 cells; about a fifth of its hits are not listed in these tables; note: % is set by controls: 0 for no effect and ±100 for the full control effect; luciferase read-out
NS1 inh: qHTS Assay for Inhibitors of Influenza NS1 Protein Function; AID 2326, 2010; S. cerevisiae slowed by influenza A NS1, growth recovery by OD600; 0.4% of 270,000 active; Potency, µM (highest dose often 46.1 µM), for the others: at the highest dose activity, positive = more growth; note: actives are rising curves; nearly all actives have a fitted effect of over 50% in size
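Compounds were scored for reversing the slow growth caused by influenza A NS1 in S. cerevisiae, measured by optical density at 600 nm. Assay medium contained 2% galactose at pH 6.0; NS1-free yeast of the same strain were the positive control.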
Cruzain inh noDet: qHTS Assay for Promiscuous and Specific Inhibitors of Cruzain (without detergent). 2.3% of 200,000 active. AID 1476, 2009. Potency, µM, for the others: max response, negative = inhibition, hits mostly inhibitors. purified cruzain, Z-FR-AMC fluorescence, no detergent. Cruzipain (Trypanosoma cruzi), P25779; active = well fitted curve in the direction sought with a large enough effect; inconclusive = small, poorly fitted or top-dose-only effect, or another doubt; inactive = no such curve, though single readings can be large; an effect the other way counts as inactive or inconclusive;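 note: plate controls were enzyme without inhibitor for no effect and buffer without enzyme for full effect; nearly all actives have a fitted effect of over 40% in size; top concentration of the series not given in the record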
Target sequence (P25779 123-467 limits assumed): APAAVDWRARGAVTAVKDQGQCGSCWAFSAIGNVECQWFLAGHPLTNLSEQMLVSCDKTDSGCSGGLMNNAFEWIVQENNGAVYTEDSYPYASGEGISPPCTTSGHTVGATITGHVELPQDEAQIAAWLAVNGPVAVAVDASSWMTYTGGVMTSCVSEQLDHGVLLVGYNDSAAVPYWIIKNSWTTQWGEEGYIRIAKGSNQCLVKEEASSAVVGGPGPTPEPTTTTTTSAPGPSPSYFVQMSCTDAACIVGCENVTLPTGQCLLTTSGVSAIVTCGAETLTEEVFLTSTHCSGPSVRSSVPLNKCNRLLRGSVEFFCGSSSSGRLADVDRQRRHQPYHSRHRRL
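Detergent-free condition (0.00005% Triton X-100) in acetate buffer pH 5.5 with DTT. 1.5 nM enzyme and compound were pre-mixed 15 min, then 2 uM Z-FR-AMC substrate added; reaction progress from fluorescence change between first and third reads (60 s).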
LASV entry inh: qHTS for Inhibitors of binding or entry into cells for Lassa Virus. Lassa virus pseudotype entry inhibition, cell reporter; control for the full effect not named in the record. Potency, µM (highest dose often 37.9 µM), for inactives: at the top dose activity change, negative = inhibition, actives largely listed as inhibitors. 1.2% of 300,000 active; active means well fitted inhibition curve with a large enough effect; inconclusive means small, poorly fitted or top-dose-only effect, or effect the other way; inactive means flat fitted curve, though single readings scatter; tested in HEK293 cells; note: % is set by controls: 0 for no effect and ±100 for the full control effect; nearly all actives have a fitted effect of over 50% in size; luciferase read-out
RE007 growth inh: qHTS Assay for Inhibitors of the HIV-1 protein Vpr; 0.21% of 360,000 active; Potency, µM (series often up to 92.2 µM), for inactives: at the top dose activity change, negative = less growth; S. pombe RE007 Vpr strain, BacTiter-Glo ATP luminescence, 24 h; control for the full effect not named in the record; AID 651644, 2012; active = well fitted falling curve with a large enough effect; inconclusive = small, poorly fitted or top-dose-only effect; inactive = no such curve, though single readings can be large or run the other way;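 note: % is set by controls: 0 for no effect and ±100 for the full control effect; nearly all actives have a fitted effect of over 50% in size; the assay follows cell death caused by Vpr and the record does not say whether a fall means rescue or toxicity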
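Fission yeast strain RE007, carrying one chromosomally integrated HIV-1 vpr copy, was seeded at OD 0.01 in PMG+AL medium with 23 nL pinned compound. After 24 h at 30 °C and 99% humidity, viability was read by BacTiter-Glo luminescence.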
2A StopGo: High Throughput Screening for Foot and Mouth Disease Virus Antivirals | human cells with a luciferase reporter of 2A StopGo recoding; control for the full effect not named in the record | Potency, µM (doses to about 57.9 µM), inactives show at the highest dose signal change, negative = less light | 1.2% of 410,000 active | AID 1159524, 2015; active = well fitted falling curve with a large enough effect; inconclusive = small, poorly fitted or top-dose-only effect; inactive = no such curve, though single readings can be large or run the other way; tested in HEK293T cells; note: % is set by controls: 0 for no effect and ±100 for the full control effect; nearly all actives have a fitted effect of over 45% in size; luciferase light after 4 h
Cruzain Triton: qHTS Assay for Promiscuous and Specific Inhibitors of Cruzain (with detergent). Cruzipain (Trypanosoma cruzi), P25779. purified cruzain, Z-FR-AMC fluorescence, 0.01% Triton. Potency, µM, for inactives: max response, negative = inhibition, most hits filed as inhibitors. 0.43% of 200,000 active. AID 1478, 2009; active = well fitted curve in the direction sought with a large enough effect; inconclusive = small, poorly fitted or top-dose-only effect, or another doubt; inactive = no such curve, though single readings can be large; an effect the other way counts as inactive or inconclusive;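 note: plate controls were neutral wells for no effect and buffer without enzyme for full effect; nearly all actives have a fitted effect of over 40% in size; top concentration of the series not given in the record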
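Compounds were screened in titration against cruzain (1.5 nM) with 0.01% Triton X-100 to counter colloidal aggregation. Activity was the AMC fluorescence increase over 60 s after adding 2 uM Z-FR-AMC at pH 5.5.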
Numbers without * were called inactive; ? = inconclusive; . = no result given; & = joins results of further samples; [ ] = remark or other dose. Unless noted, calls come from the whole dose curve; as a rule, active means well fitted rising curve with a large enough effect; inconclusive means small, poorly fitted or top-dose-only effect; inactive means no such curve, though single readings can be large or run the other way. Potency is the fitted concentration of half-maximal effect.

Values run as follows: SARS PLpro yeast | MARV entry inh | NS1 inh | Cruzain inh noDet | LASV entry inh | RE007 growth inh | 2A StopGo | Cruzain Triton
CC(=O)c1cccc(NC(=O)NCCc2c[nH]c3ccccc23)c1
→ 2.4% | -2.8%[46.1 µM] | 2.6% | . | 0.1% | 2.8% | -3.8% | .
COc1cc(/C=C(\C#N)C(=O)NCC2CCCO2)ccc1OCC(=O)O (stereo not drawn)
→ -0.2% | 14.7%[46.1 µM] | 2.7% | . | -12.8%[46.1 µM] | 0.0% | 8.7% | .
Cc1ccccc1CNS(=O)(=O)c1c(C(=O)N2CCCC2)c(C)n(C)c1C
→ -1.8% | 0.5%[46.1 µM] | 14.1% | . | -11.9%[46.1 µM] | 11.5% | 48.3%[activator] | .
COc1ccc(C(=O)c2coc3ccc(O)c(CN4CCOCC4)c23)cc1
→ -0.3% | . | -8.4% | -10.9% | . | -0.6% | -26.7% | -7.2%
O=C(NCC(c1cccnc1)N1CCc2ccccc21)c1ccc(F)cc1 (stereo not drawn)
→ . | . | . | 16.8% | ? | . | -28.0% | -8.4%
CCC(=O)N1CCc2cc(CNS(=O)(=O)c3ccc(C(C)C)cc3)ccc21
→ . | ? | . | ? | -16.4%[46.1 µM] | . | -3.1% | -3.7%
O=C(c1cc(COc2cccc(C(F)(F)F)c2)on1)N1CCC(Oc2cccnc2)CC1
→ ? | . | -56.0% | . | . | -22.5% | -0.1% | .
Cc1cc(S(=O)(=O)N2CCOCC2)c(C)s1
→ 1.3% | . | 9.2% | . | . | -19.3% | -9.6% | .
CCCOP(=O)(OCCC)C(NC(=O)c1ccccc1)=C(Cl)Cl
→ 4.8% | 6.0% | 4.0% | 1.3% | 16.2% | 0.8% | -8.5% | 3.2%
O=C(Cc1csc(NC(=O)Nc2cccc(Cl)c2)n1)NCc1cccnc1
→ -3.4% | -4.5% | . | . | 0.5% | -21.6% | -7.5% | .
Cc1ccc(C2=NN(C(=S)Nc3ccccc3)C(c3ccco3)C2)cc1 (stereo not drawn)
→ -0.6% | 3.2% | ? | ? | 5.6% | 2.5% | 51.4%[activator] | -8.0%
COC(=O)c1ccc(NC(=O)c2ccc3c(c2)OCO3)cc1
→ -1.5% | -2.1% | -1.9% | -16.0% | 13.2% | 1.3% | 48.4%[activator] | 1.0%
CC(C)NC(=O)c1ccc(CN2CCc3ccccc3C2)cc1
→ -0.7% | . | 7.2% | . | . | -12.7% | -17.4% | .
CC(Sc1nnc(COc2ccc([N+](=O)[O-])cc2)n1C)C(=O)O (stereo not drawn)
→ 0.1% | 5.3%[46.1 µM] | -1.0% | . | -0.2% | 2.2% | -10.4% | .
N#Cc1ccc(COC(=O)CCc2c[nH]c3ccccc23)cc1
→ 2.4% | 0.9%[46.1 µM] | -108.2% | . | 16.4%[46.1 µM] | -16.4% | -1.0% | .
O=C(NCCCN1CCOCC1)C1CCN(S(=O)(=O)c2c(Cl)cccc2Cl)CC1
→ 1.5% | 13.7%[46.1 µM] | -1.3% | . | -2.0%[46.1 µM] | -6.9% | 0.8% | .
O=C(c1ccco1)[C@@H]1[C@@H]2C(=O)N(c3ccc(F)cc3)C(=O)[C@@H]2[C@H]2C=Cc3ccccc3N21
→ -19.0% | -19.3%&-31.0% | ? | 25.1µM* | ? | -5.0% | 8.2% | -6.3%
COc1cc(NS(=O)(=O)c2cccs2)cc(OC)c1
→ . | 0.7%[46.1 µM] | . | -8.2% | ? | . | 11.3% | -4.8%
CCOC(=O)C1CCN(Cc2cccc(OC)c2)CC1
→ 4.7% | -1.3% | -3.9% | 9.1% | 5.9% | 13.6% | 7.4% | 3.9%
COc1cccc(CN2C(=O)C3(C(C#N)=C(N)OC4=C3C(=O)CCC4)c3ccccc32)c1 (stereo not drawn)
→ 2.8% | -0.9%&-14.0% | 2.8% | 1.4% | -16.3% | 2.5% | . | -3.9%
O=C(Nc1cccc(Cl)c1N1CCOCC1)c1ccc(Br)o1
→ -4.8% | ? | -3.9% | . | ? | 25.7% | -10.3% | .
O=c1c2c([nH]n1-c1ccccc1)CCSC2
→ 0.4% | ? | 7.9% | . | 4.4%[46.1 µM] | 9.8% | 3.8% | .
Cc1ccc(C(O)c2ccc(-n3ccnc3)cc2)cc1 (stereo not drawn)
→ 0.8% | . | -3.1% | . | . | -26.2% | -12.8% | .
Cn1c(=O)c2c(nc(SCC(=O)Nc3ccc(F)cc3)n2Cc2ccc(Cl)cc2)n(C)c1=O
→ . | 11.3%[46.1 µM] | . | -6.1% | -12.9%[46.1 µM] | . | -11.4% | -3.0%
O=C1CCC([N+](=O)[O-])C(c2cc(Br)ccc2F)N1 (stereo not drawn)
→ 2.4% | 10.0% | 0.8% | . | ? | 11.9% | -7.1% | .
CCc1ccc(/C=C2\Oc3cc(OC(=O)N4CCOCC4)ccc3C2=O)cc1
→ 0.5% | ? | 0.2% | ? | ? | . | ? | -7.8%
Cc1nc2ccccc2cc1C(=O)Nc1ccccc1Cl
→ -4.6% | ? | 15.3% | . | -11.7% | 1.0% | 7.3% | .
CC1CCC(NS(=O)(=O)c2ccc3c(c2)n(C)c(=O)c(=O)n3C)CC1 (stereo not drawn)
→ 1.1% | 1.0% | -4.9% | 6.7% | 4.2% | 2.0% | 28.5% | 7.6%
CCN1CCN(C(=O)c2cnn3c(C(F)F)cc(-c4ccc(C)cc4)nc23)CC1
→ 2.1% | ? | 0.1% | -4.1% | -22.9% | -2.5%[3.69 µM] | -23.9% | 5.8%
Cc1cc(C)nc(N/N=C/c2ccccc2Cl)n1
→ 0.3% | . | 1.2% | . | . | -15.6% | 45.2%[activator] | .

Record cards (already shown). Order of screens: SARS PLpro yeast, MARV entry inh, NS1 inh, Cruzain inh noDet, LASV entry inh, RE007 growth inh, 2A StopGo, Cruzain Triton
Entry for CC1CCC(NS(=O)(=O)c2ccc3c(c2)n(C)c(=O)c(=O)n3C)CC1 (stereo not drawn) = 1.1%, 1.0%, -4.9%, 6.7%, 4.2%, 2.0%, 28.5%, 7.6%
Entry for CCc1ccc(/C=C2\Oc3cc(OC(=O)N4CCOCC4)ccc3C2=O)cc1 = 0.5%, ?, 0.2%, ?, ?, ., ?, -7.8%
Entry for N#Cc1ccc(COC(=O)CCc2c[nH]c3ccccc23)cc1 = 2.4%, 0.9%[46.1 µM], -108.2%, ., 16.4%[46.1 µM], -16.4%, -1.0%, .

More records
Values run as follows: SARS PLpro yeast | MARV entry inh | NS1 inh | Cruzain inh noDet | LASV entry inh | RE007 growth inh | 2A StopGo | Cruzain Triton
Cc1cc(C)c2[nH]c(=O)c(CN(Cc3cccnc3)C(=S)NCCCN(C)C)cc2c1
→ 4.9% | -18.6%[46.1 µM] | 0.6% | . | 5.8% | -17.1% | -9.0% | .
O=C(NCC1(O)CCCCC1)C1CCC(=O)N(Cc2ccccc2F)C1 (stereo not drawn)
→ 0.4% | 9.0% | 17.0% | . | 10.7% | 7.2% | -8.7% | .
COc1cc2nc(CN3CCN(S(=O)(=O)c4ccc(Cl)cc4)CC3)[nH]c(=O)c2cc1OC
→ 0.2% | -27.9%[46.1 µM] | . | . | -24.8%[46.1 µM] | 9.9% | ? | .
CCOc1ccccc1NC(=O)c1ccc2nc[nH]c2c1
→ 1.5% | -9.1%[46.1 µM] | 11.7% | . | 7.3%[46.1 µM] | 23.2% | 1.0% | .
O=C(C(=O)N1CCOCC1)c1cn(CCCOc2ccccc2)c2ccccc12
→ 1.0% | ? | -2.5% | . | -4.8%[46.1 µM] | 6.3% | 8.9% | .
CN1C(=O)NC(c2ccc(O)cc2)C(C(=O)c2cccs2)C1(O)C(F)(F)F (stereo not drawn)
→ -2.0% | 6.6% | -10.1% | -5.6% | 11.6% | -28.9% | 0.0% | 0.5%
Cc1ncc(C[n+]2csc(CCOC(=O)C34CC5CC(CC(C5)C3)C4)c2C)c(N)n1
→ 0.6% | 3.5%[46.1 µM] | 2.5% | . | -1.5% | . | -2.1% | .
COc1ccccc1NS(=O)(=O)c1cccc(NS(=O)(=O)c2cc(C(=O)O)ccc2OC)c1
→ 7.0% | -10.8% | . | . | 13.8% | 3.4% | -5.4% | .
CC(=O)N1CCN(C(=S)NC(=O)c2ccc(S(=O)(=O)N3CCOCC3)cc2)CC1
→ 10.9% | 3.0% | ? | -5.9% | 5.8% | -1.5% | -14.9% | 0.0%
O=C(Nc1cc(Cl)ccc1N1CCOCC1)c1ccc(F)c(S(=O)(=O)N2CCOCC2)c1
→ -3.3% | 24.1% | . | . | 22.0% | -14.7% | -8.8% | .
Nc1ccccc1-c1ccc([N+](=O)[O-])cc1
→ . | 5.62µM* | . | . | ? | 14.7% | -5.5% | .
N#Cc1cccc(CN2CCCN(Cc3ccc(F)cc3)S2(=O)=O)c1
→ -3.1% | . | -6.6% | . | . | 7.9% | -29.6% | .
O=C(Nc1cccc(C(=O)N2CCOCC2)c1)c1cccnc1
→ 0.1% | -4.9% | 5.1% | -0.7% | 2.0% | -15.4% | 1.2% | -0.7%
Clc1ccc(OCc2cn3cccnc3n2)c2ncccc12
→ ? | -3.9% | -9.6% | ? | 4.7% | -8.9% | 61.4%[activator] | -8.0%
CC(=O)N(CCc1cccc(C)c1)Cc1cc2ccc(C)cc2[nH]c1=O
→ 11.0% | . | 18.3% | . | . | 0.6% | -4.7% | .
Cc1cn2c(=O)cc(COC(=O)c3cccc(NC(=O)c4ccccc4C)c3)nc2s1
→ . | . | . | -2.4% | 15.4%[46.1 µM] | . | -6.3% | 2.8%
C=CCN1C(=O)/C(=C2/Sc3ccccc3N2CCCS(=O)(=O)O)SC1=S
→ 0.9% | 10.3% | -1.2% | 23.8% | 3.3% | 5.9% | -21.1% | -14.5%

Assay outcomes deposited in PubChem by National Center for Advancing Translational Sciences (NCATS).
